KCNQ2 enhance = potentiators of rat KCNQ2 potassium channel. Potassium voltage-gated channel subfamily KQT member 2 (Rattus norvegicus), O88943. CHO-K1 KCNQ2, FluxOR thallium flux fluorescence; active compounds read high. B-score at 10 µM. 310,000 compounds, 0.54% hits;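 active means fluorescence ratio B-score at least 3 SD of library B-scores, with initial fluorescence B-score within 3 SD, cut at about 5.3 in these data; same plate scores as AID 2156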;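 further: B-score of peak minus minimum over baseline fluorescence ratio after K+ and Tl+ stimulus; positive B-score means potentiation of KCNQ2 with more thallium influx and brighter signal; only the inactives scoring about 0 or higher are listed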
Target sequence (O88943 whole entry, looked up): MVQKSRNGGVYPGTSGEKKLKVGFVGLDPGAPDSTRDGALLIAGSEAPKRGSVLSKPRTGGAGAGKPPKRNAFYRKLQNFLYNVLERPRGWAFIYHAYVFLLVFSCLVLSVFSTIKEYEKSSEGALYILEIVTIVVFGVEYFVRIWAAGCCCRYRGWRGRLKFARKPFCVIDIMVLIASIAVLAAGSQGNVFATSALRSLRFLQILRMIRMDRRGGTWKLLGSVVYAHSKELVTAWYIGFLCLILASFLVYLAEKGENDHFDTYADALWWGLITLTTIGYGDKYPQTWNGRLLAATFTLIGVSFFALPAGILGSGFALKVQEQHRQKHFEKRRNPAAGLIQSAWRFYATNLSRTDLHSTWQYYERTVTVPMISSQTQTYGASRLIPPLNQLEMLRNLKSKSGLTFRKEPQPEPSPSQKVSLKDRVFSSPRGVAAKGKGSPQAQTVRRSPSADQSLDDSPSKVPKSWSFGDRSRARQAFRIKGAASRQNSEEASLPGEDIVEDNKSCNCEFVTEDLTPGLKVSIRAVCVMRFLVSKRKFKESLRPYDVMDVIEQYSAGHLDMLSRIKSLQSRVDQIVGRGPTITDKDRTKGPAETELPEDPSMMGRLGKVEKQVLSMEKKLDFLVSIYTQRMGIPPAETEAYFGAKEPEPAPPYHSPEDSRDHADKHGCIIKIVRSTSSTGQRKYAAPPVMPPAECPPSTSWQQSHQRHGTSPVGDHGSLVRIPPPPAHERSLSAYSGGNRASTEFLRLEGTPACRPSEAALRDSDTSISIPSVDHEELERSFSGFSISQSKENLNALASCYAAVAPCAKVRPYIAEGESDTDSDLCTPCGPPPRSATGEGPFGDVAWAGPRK
KCNQ2 enhance baseline = also measured in KCNQ2 enhance; calls as there; B-score; compound at 10 µM; measured here: initial fluorescence intensity artifact check;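 brightness before thallium and not channel activity; 0 = typical well and far values either way flag optical interference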
* marks the source's active call; other numbers are inactive results; x = not tested or not shown. Only part of the results is shown. The share of hits here may be higher or lower than overall.

SMILES	KCNQ2 enhance	KCNQ2 enhance baseline
NC(=O)c1cccc2c1-c1ccccc1/C2=N/NC(N)=S	1.8	-1.2
COc1ccc(/C=N/NC(=O)c2csc(-n3nc(C)cc3C(F)(F)F)n2)cc1	1.1	-0.85
CCN(CC)CCC(c1ccc2c(c1)OCO2)c1c(OC)cc(OC)c2ccc(=O)oc12 (centres undefined)	0.4	0.65
COC(=O)CNC(=O)C(C)NC(=O)OCc1ccccc1 (centres undefined)	0.52	-1.6
CCOc1ccc(C2C(C(C)=O)=C(O)C(=O)N2CCc2c[nH]c3ccccc23)cc1 (centres undefined)	1.9	0.86
CSc1nnc(NC(=O)c2ccc3c(c2)OCO3)s1	0.06	0.02
O=C(NC1CCCC1)C1CCN(S(=O)(=O)c2cccc3cccnc23)CC1	0.51	0.78
COc1ccc(-c2noc(CCC(=O)NCCN(C)Cc3ccccc3)n2)cc1	2.6	-0.05
CCN(CC)CCCN1C(=O)C2C(C(=O)Nc3ccc(C(C)C)cc3)C3C=CC2(O3)C1C(=O)NC1CCCCC1 (centres undefined)	1.6	0.94
Cc1onc(-c2ccccc2)c1C(=O)NNC(=S)NC(=O)c1ccc(F)cc1	0.71	-0.38
CSc1cccc(NS(=O)(=O)c2cn(C)cn2)c1	0.03	-0.2
Clc1cccc(OCCCN2CCCC2)c1Cl	0.86	0.41
COc1ccccc1/C=C1\SC(=O)N(CC(=O)N(C)C2CCS(=O)(=O)C2)C1=O (centres undefined)	0.76	1.9
COc1c(Cl)cc(Cl)cc1C(=O)Nc1ccc(C(=O)O)cc1	2.3	-0.6
CCOc1ccc(-c2nc(C#N)c(NCC(C)C)o2)cc1	1.5	-0.2
CCCC(O)(CCC)C(=O)NN(C(=O)CCl)c1cccc(C)c1	0.73	0.08
O=C(Nc1ncn[nH]1)C(F)(F)C(F)F	1.3	0.53
COc1ccccc1NC(=S)N1CCN(C(c2ccccc2)c2ccccc2)CC1	0.33	-2.4
CCOc1ccc(S(=O)(=O)N2CCN(S(=O)(=O)c3ccc(C(C)=O)cc3)CC2)cc1	0.6	-0.87
CCc1nnc(NC(=O)c2ccc(-c3cc(C(F)(F)F)ccc3Cl)o2)s1	1.1	0.06
CC(CC(=O)Nc1cccnc1)c1ccccc1 (centres undefined)	0.11	-1.4
CCCc1nc(C)c2c(=O)[nH]c(-c3cc(S(=O)(=O)N4CCN(CC)CC4)ccc3OCC)nn12	0.43	-0.46
Cc1csc(NC(=O)c2cnc3ccccc3n2)n1	1.9	1.4
NC(=O)c1ccsc1NC(=O)CS(=O)(=O)c1ccc(F)cc1	3.3	-0.02
Cc1nn(C)c(C(=O)Nc2ccn(C34CC5CC(CC(C5)C3)C4)n2)c1[N+](=O)[O-]	0.9	1.7

Additional compounds follow:
SMILES	KCNQ2 enhance	KCNQ2 enhance baseline
Cc1cccc(C)c1NC(=O)C1CC2CCC1C2 (centres undefined)	6.2*	-0.75*
Cc1ccc2c(c1)c1c(n2CC(O)Cn2c(C)nc3ccccc32)/C(=N\O)CCC1 (centres undefined)	1.7	-1.6
CCOC(=O)c1ccc(NC(=O)N2CCN(C(=O)C3CCCO3)CC2)cc1 (centres undefined)	0.28	0.07
O=C(Cc1ccc(Br)cc1)N/N=C/c1cccnc1	0.4	1.9
CNc1nc(NC)nc(-n2c(C(F)(F)F)nc3ccccc32)n1	0.54	-0.01
Cc1ccccc1NC(=O)NNC(=O)CCc1ccccc1	1.9	0.53
Cc1ccc(C(=O)NCCN2C3=NC[C@H](Cc4ccc(O)cc4)N3C[C@H]2Cc2ccc(O)cc2)cc1Br	0.05	0.23
CCC1=C(OC(=O)N(CC)CC)N2C(=O)OC(=NCCc3c[nH]c4ccccc34)[C@]2(C)[C@H]2C1=CC[C@H]1C(=O)N(CC)C(=O)[C@H]12	0.95	-0.35
CCc1c(C)nc2[nH]nc(NC(=O)C(F)(F)F)n2c1=O	1.2	-2.1
CCN1CCN(c2ncnc3sc4c(c23)CCC(C)C4)CC1 (centres undefined)	0.91	-0.1
CNC(=O)c1ccc2snnc2c1	0.26	1.6
O=[N+]([O-])c1ccc(Oc2ccc(S(=O)(=O)Nc3ccccc3)cc2)cc1	3.2	-0.19
COc1cccc(C(=O)Nc2nnc(S(=O)(=O)Nc3cccc(C)c3)s2)c1	1.1	2.1
Cc1cccc(NC(=O)CCS(=O)(=O)c2ccc(Br)cc2)c1	1.4	1.6
CN(C)CCCN(Cc1cc2cc3c(cc2[nH]c1=O)OCO3)C(=S)NCc1ccco1	0.56	0.98
CC(C)C(OC(=O)c1ccc(Cl)nc1)C(=O)NC1CCCCC1 (centres undefined)	1.3	1.1
COC(=O)c1nnn(-c2nonc2N)c1-c1cccs1	0.43	-0.03
O=C(OCc1cccc([N+](=O)[O-])c1)c1cc2ccccc2oc1=O	0.87	0.78
COc1ccc(N(C)C(=O)Cc2c(C(=O)O)n(C)c3ccccc23)c(OC)c1	0.11	0
COc1ccc(C)cc1NC(=O)c1cnc2n(c1=O)CCS2	1.5	-0.1
CCn1cc(C(=O)NCC(=O)NC(C)(C)CO)c(=O)c2cc3c(cc21)OCO3	0.51	-0.11
Cc1ccc2cc3cc(C(=O)NCCCN4CC(C)CC(C)C4)oc3nc2c1 (centres undefined)	3.6	0.05
COCCOC(=O)C1=C(C)NC2=C(C(=O)CC(c3cccs3)C2)C1c1ccsc1 (centres undefined)	0.04	0.48
C=CCSc1nc2ccccc2[nH]1	1.1	-0.44
CC(C)(C)NC(=O)CC1C(=O)NCCN1Cc1c(F)cccc1Cl (centres undefined)	2	-0.98

Following part:
SMILES	KCNQ2 enhance	KCNQ2 enhance baseline
Cn1cc(CNCCCn2ncc3ccccc32)c(-c2ccccc2F)n1	0.01	1.8
COc1ccc(NC2CCCCC2NS(=O)(=O)c2ccc(C)cc2)cc1 (centres undefined)	0.09	0.36
c1ccc(-c2ccc(-c3cnc4n3CCCCC4)cc2)cc1	0.36	-0.61
Cn1c(=O)c2ccccc2n(Cc2ccccc2Cl)c1=O	0.76	0.69
Nn1cc(-c2ccccc2)nc1SCC(=O)Nc1ccc(S(N)(=O)=O)cc1	0.47	0.91
COc1ccc(S(=O)(=O)N2CCCCCC2)cc1NC(=O)CN1C(=O)NC(C)(c2ccc(C)cc2)C1=O (centres undefined)	1	-1.9
C=CCn1c(CNc2ccc(C)cc2)nnc1SCC(=O)N/N=C/c1ccc(O)cc1	0.4	-1.9
O=C(Nc1nc2ccccc2s1)C1CCCN1S(=O)(=O)c1ccc(Cl)cc1 (centres undefined)	-5.6	x
COc1ccc(-c2ccc3ccccc3n2)cc1OC	0.19	-0.59
Cc1cc(N2CCN(c3ccccn3)CC2)n2nc(C)nc2n1	1.1	-0.7
Cc1ccc2nc3c(nc2c1)-c1ccccc1C3=O	0.79	-0.02
CC(C)Nc1nc(NC(C)C)nc(C(N)=O)n1	1.3	-1.3
Cc1nnn(-c2nonc2N)c1C(=O)N/N=C/c1ccccc1O	0.69	-1.6
CSc1nsc(SC)c1NC(=O)N1CCCCC1	0.15	-2.3
CCOc1ccccc1N=Cc1c(O)c2ccccc2oc1=O	0.09	-0.24
C[C@]12CC[C@@H]3c4ccc(O)cc4CC[C@H]3[C@@H]1CCC2=O	1.4	-0.16
Cc1ccc(-c2cc(C(=O)NN=C3CCCC3)c3ccccc3n2)cc1	1.5	-1
Cn1nc(C(=O)NCCN2CCOCC2)c2ccccc2c1=O	0.08	1.3
COc1cccc(CNC(=O)CCC2CCCN(c3cc(C)nc(N)n3)C2)c1 (centres undefined)	0.18	-0.04
CC(C)[C@H](NS(=O)(=O)c1cccc(Cl)c1)C(=O)OCC(=O)N1CCN(c2ccccc2)CC1	0.78	0.65
COc1cc2c(cc1OC)CN(C(=O)CSc1n[nH]c(N)n1)CC2	1.6	-0.63
C=CCOC(=O)C1=C(C)NC(SC)=C(C#N)C1c1cccs1 (centres undefined)	1.4	-2.3
COc1ccc(-c2n[nH]c(=S)nc2-c2ccc(OC)cc2)cc1	0.53	-0.94
Cc1cccc(OCC(=O)NCCNC(=O)c2ccccn2)c1	0.02	0.77
COc1ccc(NC(=O)CSc2nnc(Cc3cccn3C)n2-c2ccc(F)cc2)cc1	0.13	0.18

Next section:
SMILES	KCNQ2 enhance	KCNQ2 enhance baseline
c1nc2nc3c(c(N4CCOCC4)n2n1)CCCC3	17*	0.14*
CC(Oc1ccc(Cl)cc1Cl)c1ccn[nH]1 (centres undefined)	1.5	0.68
CCN(CC)CCCNC(=O)C1c2ccccc2C(=O)N(CCOC)C1c1ccc(F)cc1 (centres undefined)	0.05	0.15
C=C(C)c1cccc(C(C)(C)NC(=O)NC2CCCC2)c1	4.9	-0.45
COc1ccccc1N=Nc1ccc(O)c2ncccc12	6.7*	-1.9*
O=C(Nc1ccccc1Cl)N1CCN(c2ncccn2)CC1	2.4	-0.9
NNC(=O)c1csc(-c2ccccc2)n1	0.36	-0.98
O=C(CNC(=O)c1cccnc1)N/N=C/c1cccnc1	0.83	-2.8
CCCCOc1ccc(C(=O)Nc2ccc(S(=O)(=O)Nc3cc(C)on3)cc2)cc1OC	0.17	-0.48
[O-][n+]1cccc2ncc3cscc3c21	1.7	-0.99
COc1ccc(C(=O)N2CCN(C(=O)Cc3ccccc3)CC2)cc1OC	1.2	1.3
Cc1nc(C)c(-c2ccc(SCC(=O)Nc3cccc(Cl)c3C)nn2)s1	0.05	-0.11
CCOc1cc(N2CCOCC2)c(OCC)cc1NC(=O)COC(=O)/C=C/c1ccc(OC(F)F)cc1	1.4	0.51
CCCCn1c(N)c(N(CCOC)C(=O)c2cc(S(=O)(=O)N3CCOCC3)ccc2F)c(=O)[nH]c1=O	0.85	0.77
CCN(CC)CCCCOc1ccccc1OC	1.3	-0.08
COc1ccc(C(C)=O)cc1CSc1nnc(C)n1-c1ccccc1	0.17	-0.78
COc1cc(N)ccc1NC(=O)c1cccs1	1.7	0.16
COC(=O)/C=C1\SC(=Nc2ccc(Cl)c(Cl)c2)NC1=O	1.3	0.05
CCCCNC(=O)Nc1nnc(SCC(=O)OCC)s1	1.2	-0.36
COc1cc(SC)ccc1C(=O)Nc1ccc(Br)cn1	0.07	0.82
CC1=C([N+](=O)[O-])C(c2ccc(Cl)cc2)NC(=O)N1C (centres undefined)	0.41	0.8
O=C(CN(C(=O)c1csnn1)c1ccc(Br)cc1)NC1CCCC1	0.89	0.18
CCC(=O)Nc1cc(Cl)ccc1N1CCN(C(=O)CC)CC1	0.09	1.1
CN(C)N=Nc1ccc(S(=O)(=O)/N=C(\O)c2ccccc2)cc1	0.04	0.64
O=C(Cn1cnc2c(nnn2Cc2ccc(F)cc2)c1=O)NCC1CCCO1 (centres undefined)	1.2	-0.14

(listing goes on)
SMILES	KCNQ2 enhance	KCNQ2 enhance baseline
CC1Cn2c(nnc2-c2cccs2)S1 (centres undefined)	0.94	-0.22
Nc1cc(Cl)c(N)cc1Cl	0.24	-0.36
O=C(O)C(c1ccccc1)N1C(=O)/C(=C\c2ccc(-c3ccccc3Cl)o2)SC1=S (centres undefined)	2.3	-1.9
Cc1ccc(S(=O)(=O)N(CC(=O)Nc2cccc(C(F)(F)F)c2)C(=O)N2CCN(C)CC2)cc1	0.74	-1
Cc1ccc2c(c1)N(CCCC(=O)NCc1ccc3c(c1)OCO3)C(=O)CO2	1.1	-0.34
COc1ccc(C)cc1NC(=O)Cn1c(=O)oc2ccccc21	0.02	0.93
Cc1cc(CNC(=S)Nc2cccc(Cl)c2Cl)nn1C	0.34	-1.5
CC(C)Nc1nnc(SCC(=O)Nc2ccc(F)cc2)s1	0.73	1.8
O=C(c1ccncc1)N(Cc1cc2ccccc2[nH]c1=O)C1CCCCC1	1.6	-0.89
CC(OC(=O)c1snc(C(=O)NC2CCCCC2)c1N)C(=O)NC1CCCCC1 (centres undefined)	1.2	0.19
CC1CCCCC1NC(=O)C1Cc2ccccc2CN1S(C)(=O)=O (centres undefined)	0.75	-0.02
NC(=O)OCC(COC(N)=O)c1ccccc1	0.15	x
COc1ccc(/C=C/C(=O)NC(=S)NN2CCCCC2c2cccnc2)cc1OC (centres undefined)	0.57	0.27
Cc1ccc(OCC(=O)Nc2nnc(C3CCCO3)s2)c(Br)c1 (centres undefined)	1.1	0.83
N#CC1=C2SCN(c3ccccc3)CN2C(=O)CC1c1c(Cl)cccc1Cl (centres undefined)	0.82	0.04

Source: PubChem (Johns Hopkins Ion Channel Center)
